# Bioassay records: PubChem BioAssay, National Center for Advancing Translational Sciences (NCATS)
# ClpP mod: qHTS Assay for Activators of ClpP; ATP-dependent Clp protease proteolytic subunit (Bacillus subtilis (strain 168)), P80244; purified B. subtilis ClpP, FRET peptide cleavage, 20 min; Potency, µM (doses to about 57.5 µM), inactives show at the highest dose activity change, negative = active; hit rate 1.9% among 340,000; active = well fitted falling curve with a large enough effect; inconclusive = small, poorly fitted or top-dose-only effect; inactive = no such curve, though single readings can be large or run the other way; also: potency is read from the fitted curve at half-maximal effect; the source files actives as falling curves though it sought activators and does not explain the sign; nearly all actives have a fitted effect of over 65% in size; many hits overshoot -100%
# Target sequence (P80244 whole entry, looked up): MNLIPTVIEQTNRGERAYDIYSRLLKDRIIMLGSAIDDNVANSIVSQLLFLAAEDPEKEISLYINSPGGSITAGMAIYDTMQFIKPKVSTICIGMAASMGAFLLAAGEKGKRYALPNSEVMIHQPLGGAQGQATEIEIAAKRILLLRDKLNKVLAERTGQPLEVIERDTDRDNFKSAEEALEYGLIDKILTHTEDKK
#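 Buffer: 100 mM Tris/HCl pH8, 100 mM KCl, 0.05% low protease BSA, 2.5% glycerol, 0.01% Tween-20. ClpP 10 microg/mL final; 20 min RT; delta FRET normalized to ADEP and DMSO controls.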
# Menin MLL FP FL: inhibitors of human menin-MLL interaction, wild-type MLL peptide; Fluorescence polarization, fluorescein-MLL peptide displacement from menin; FP activity change, % at 61.4 µM; 290,000 tested, under 10 active; AID 1766; inconclusive = falling polarisation curve, or a change in total fluorescence; inactive = total fluorescence flat and polarisation flat or rising; no compound was filed as active; the % refers to the polarisation; negative = inhibition;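 also: % of control where 0% means no effect; inhibitors lower the polarisation; unlabelled MLL peptide was the positive control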
# TRPV1 PAM: enhances activation of the human vanilloid receptor TRPV1; Q8NER1; TRPV1-expressing cells, Fluo-8 calcium influx, capsaicin EC20 potentiation; host cell line not named in the record; control for the full effect not named in the record; potentiation, % at 8.33 µM; hit rate 0.02% among 320,000; active means potentiation above 80%; inconclusive means 30% to 80%; inactive means below 30%; also: 0% is about no effect
#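 Fluo-8 calcium influx in TRPV1-expressing cells, kinetic read (ex 480/em 520 nm). Compound added and read 3 min for agonist activity, followed by capsaicin at EC20 final and 2 min further read for enhancement.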
# gsp antagonist: antagonists of gsp mutant (McCune-Albright syndrome); gsp-mutant cells, cAMP HTRF, 30 min; control for the full effect not named in the record; Potency, µM (highest dose often 76.9 µM), for inactives: at the highest dose activity change, negative = inhibition, hits mostly inhibitors; AID 624288; hit rate 0.4% among 340,000; active = falling curve of any shape with a large fitted effect; inconclusive = falling curve, mostly with a smaller effect; inactive = flat or rising curve; cell line not stated here;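 also: intracellular cAMP measured with PDE inhibitor Ro 20-1724 present during compound exposure; potency is read from the fitted curve at half-maximal effect; % is scaled to controls: 0 for no effect and ±100 for the full control effect; nearly all actives have a fitted effect of over 65% in size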
#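 Cells, 2000/well, grown 16–24 h in DMEM 10% FBS with 0.5 mg/ml G418, then compounds plus […] (300 uM addition stock), 30 min at 37C. cAMP read by HTRF (cAMP-d2 and anti-cAMP antibody-K in lysis buffer) after 30 min RT.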
# D2 PAM: potentiates the human D2 dopamine receptor allosterically; DiscoveRx D2 beta-arrestin cells, luminescence, 90 min; 100% = 57 uM dopamine signal; potentiation, % (concentration not given with the values); hit rate 0.23% among 360,000; active = potentiation of 50% or more; inconclusive = 30% to 50%; inactive = 30% or less;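 also: compound concentration not given in the record; tested on top of an EC20 dose of dopamine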
# Target sequence (P14416 whole entry, looked up): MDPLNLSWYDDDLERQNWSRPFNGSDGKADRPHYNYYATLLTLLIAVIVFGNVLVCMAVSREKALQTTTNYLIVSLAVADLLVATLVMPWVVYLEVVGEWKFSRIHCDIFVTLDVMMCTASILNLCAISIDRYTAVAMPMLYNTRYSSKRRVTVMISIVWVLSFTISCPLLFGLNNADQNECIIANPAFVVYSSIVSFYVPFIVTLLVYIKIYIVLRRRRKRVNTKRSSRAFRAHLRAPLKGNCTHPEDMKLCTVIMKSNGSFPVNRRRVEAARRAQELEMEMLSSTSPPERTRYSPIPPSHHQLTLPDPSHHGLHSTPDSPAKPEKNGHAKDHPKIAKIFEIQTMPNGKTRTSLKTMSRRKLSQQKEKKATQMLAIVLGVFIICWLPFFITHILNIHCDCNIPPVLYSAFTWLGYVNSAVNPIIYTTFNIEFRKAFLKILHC
#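 PathHunter beta-arrestin assay in DiscoveRx D2 cells. Compounds were added with an EC20 of dopamine (50 nM final) for 90 min at 37 deg C. Luminescence was read 1 h after detection reagent, with 57 uM dopamine as the EC100 control.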
# Sfp PPTase inh: inhibitors of Bacillus subtilis Sfp phosphopantetheinyl transferase; Potency, µM, for inactives: max response, negative = inhibition, usual class: inhibitors; hit rate 3.5% among 310,000; Q9F4F7; Biochemical Sfp PPTase activity, qHTS; active = well fitted inhibition curve with a large enough effect; inconclusive = small, poorly fitted or top-dose-only effect, or another doubt; inactive = no such curve, though single readings can be large or run the other way;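 also: the enzyme is Sfp with the accession as filed and its product quenches rhodamine fluorescence; potency is read from the fitted curve at half-maximal effect; 0% = enzyme reaction without inhibitor and -100% = no enzyme wells; top concentration of the series not given in the record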
#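 Reaction rates are the 30-min fluorescence difference (ex 525, em 598 nm) in wells containing 15 nM Sfp, 5 uM rhodamine-CoA and 12.5 uM BHQ-2-YbbR at pH 7.6 with 10 mM MgCl2.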
# gsp agonist: gsp mutant agonism. hit rate 0.13% among 340,000. Potency, µM (doses to about 76.9 µM), without a hit: top-dose activation (cAMP increase), most hits filed as activators. gsp mutant cells, cAMP HTRF, 30 min; control for the full effect not named in the record; active = well fitted activation curve with a large enough effect; inconclusive = small, poorly fitted or top-dose-only effect, or another doubt; inactive = no such curve, though single readings can be large or run the other way; cell line not stated here;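 also: phosphodiesterase inhibitor Ro 20-1724 added with compounds to block cAMP breakdown; potency is read from the fitted curve at half-maximal effect; nearly all actives have a fitted effect of over 60% in size; about a fifth of the inactives were tested at one dose only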
#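 Cells stably selected in G418 were plated at 2000/well, grown 16-24 hr, then given compounds in DMSO with the PDE inhibitor […] (300 uM solution added) for 30 min at 37C; cAMP was read by HTRF.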
# * hit, by the source's call; ? = inconclusive; · = not tested or not shown; & = joins results of further samples; [ ] = another dose, or the depositor's remark.
Molecule,TRPV1 PAM,Sfp PPTase inh,gsp antagonist,gsp agonist,Menin MLL FP FL,D2 PAM,ClpP mod
C=CCc1ccc(OC(=O)NC2CCCCC2)c(OC)c1,6.5,12.9%,10.4%,-3.7%[15.4 µM],0.3,-4.1,0.5%
CCCNC(=O)C1CC(=O)N(c2ccc(OCc3ccccc3)cc2)C1 (stereo not given),·,·,·,?,·,3.6,0.5%
Cc1cc(C)c(C)c(OCCCCN2CCCCC2)c1,13.5,5.5%,5.2%,-35.0%[inhibitor],-1.2,-26.1,·
Cc1ccc(OCc2nnc(SCC(=O)O)n2-c2ccccc2)cc1,·,·,5.4%,-4.1%[15.4 µM],·,3.7,0.3%
Cc1nc(-c2cccc(Br)c2)ccc1C(=O)O,17.2,18.4%,0.4%,10.3%[15.4 µM],-0.5,-3.5,0.7%
Cc1ccc(NC(=O)CN2CCN(Cc3ccccc3)CC2)cc1F,-2.4,3.9%,3.3%,9.4%,0.4,-10.5,·
O=C(NC1CCCCC1)c1ccc(Cn2cc(Cl)cn2)cc1,-14.4,7.3%,-16.2%,1.8%,1.8,-2.8,0.6%
COc1cc(/C=N/NC(=O)c2ccc(COc3cc(C)ccc3C(C)C)cc2)cc(OC)c1O,-9.2,-3.4%,-12.3%,-16.1%,2.2,20.6,-9.3%
COc1ccc(C(=O)Cc2cnn(-c3ccccc3)c2)c(O)c1,-6.3,-5.6%,-6.9%,?,3.2,-11.0,4.2%
CCCCN(C(=O)CC1CCCC1)c1c(N)n(Cc2ccccc2)c(=O)[nH]c1=O,·,·,·,8.2%,·,-11.1,0.3%
O=C(NCCc1ccccc1)c1ccc(=O)oc1,0.9,8.3%,3.1%,-24.9%,-1.2,7.0,0.7%
O=C1CCCC2=C1C(c1ccc3c(c1)OCO3)c1c([nH]n(-c3ccccc3)c1=O)N2 (stereo not given),5.6,4.3%,-20.1%,5.5%,0.8,1.3,-1.6%
COc1cccc2sc(=NC(=O)CS(=O)(=O)c3ccc(Cl)cc3)n(C)c12,-20.6,·,-1.2%,52.1%[15.4 µM],·,-4.6,·
COc1ccc(C(=O)NNC2=CC(=O)CC(C)(C)C2)cc1,4.7,4.9%,9.3%,5.0%,1.0,?,-2.6%
CC1CC(=O)c2cnc(Nc3cccc(C(F)(F)F)c3)nc2C1 (stereo not given),4.7,14.2%,0.6%[15.4 µM],?,2.8,-12.1,-4.9%
COc1ccc(CCC(=O)NCCS(=O)(=O)N2CCN(c3ccc(F)cc3)CC2)cc1,1.7,·,-6.8%,-3.2%[15.4 µM],·,2.8,·
O=C(CSc1nnnn1-c1cccnc1)Nc1cccc(Cl)c1,2.5,11.7%,-4.1%,?,2.1,1.7,·
COC(=O)c1ccc(N2CCS(=O)(=O)CC2)cc1,19.3,7.5%,-0.5%,-11.9%,-0.7,-5.9,·
O=C(COC(=O)c1ccc([N+](=O)[O-])cc1Cl)NCc1ccco1,-1.0,·,6.9%,5.2%,·,7.0,0.3%
CCCN1CN(Cc2ccco2)c2nc3ccccc3n2C1,6.9,-10.3%,-5.2%,?,-0.9,7.9,-2.1%
Cc1cc(NC(=O)CSCC(=O)N(c2ccc(F)cc2)C(C(=O)NC2CCCCC2)c2ccc(O)c(O)c2)no1 (stereo not given),-1.7,2.6%,-9.3%,7.1%,-1.4,-7.5,-2.7%
CCOC(=O)c1ccccc1N1C(=O)CSC1=S,4.8,6.2%,-6.4%,-5.9%,7.7,1.3,0.5%
COc1ccc(N2CCN(C(=O)c3cccc(S(=O)(=O)N4CCOCC4)c3)CC2)cc1,0.8,·,-3.5%,-143.4%[inhibitor],·,0.0,0.9%
COc1ccccc1NC(=O)CCN1CCCCCC1,13.5,12.2%,8.0%,-27.8%,1.3,-13.0,-1.7%
COc1cccc(CNS(=O)(=O)c2ccc3c(c2)N(C)CCO3)c1,8.2,8.8%,-10.4%,0.8%,·,1.1,-0.7%
CC(C)c1nnc(SCC(=O)N2CCOCC2)n1C,6.7,13.9%,9.5%,6.0%,1.2,-7.2,-2.5%
Cc1ccc(CS(=O)Cc2ccc(C(=O)NCc3ccccc3Cl)o2)cc1 (stereo not given),-5.3,1.1%,-26.5%,11.7%,·,-2.0,-0.7%&0.4%
Cc1ccc(S(=O)(=O)N2CCCC2C(=O)OCC(=O)Nc2ccc3c(c2)OCO3)cc1 (stereo not given),9.7,5.8%,?,10.0%,3.2,-9.0,1.5%
Cc1ccc(NC(=O)C(C)N2CCCc3ccccc32)cc1S(=O)(=O)N1CCOCC1 (stereo not given),·,·,·,?,·,-11.6,-3.7%
Cc1nc2ncnn2c(C)c1CCC(=O)N1CCN(Cc2ccccc2)CC1,-7.0,-0.1%,7.3%,5.6%,1.8,0.4,-1.1%
C/C(=N\NC(=O)C(C)Oc1ccc([N+](=O)[O-])cc1)c1ccccn1 (stereo not given),0.6,18.9%,-4.4%,-8.5%,1.7,-11.0,-0.7%
Cc1csc(NC(=O)CSc2nnc(-c3ccccc3)o2)n1,21.9,0.4%,-17.3%,2.6%,3.3,-14.8,5.3%
CCOc1cc(/C=N/Nc2nncc(-c3ccccc3)n2)ccc1O,?,11.9%,2.2%,-0.1%[15.4 µM],1.9,-5.8,·
O=[N+]([O-])c1ccccc1OCCCN1CCOCC1,2.7,4.6%,0.4%,-4.8%,2.2,-14.0,-2.3%
CCN(CC)CCNC(=O)C(=O)NCC1OCCN1S(=O)(=O)c1ccc2c(c1)OCCO2 (stereo not given),11.5,10.1%,-1.2%,-73.9%[inhibitor],-2.6,-3.3,1.1%
Cn1c(CNC(=O)CCNC(=O)c2cccc(F)c2)cc(=O)n(C)c1=O,0.0,16.5%,-0.7%,-7.3%,·,-3.8,-0.7%
CC(=O)Nc1ccc(OC(=O)c2ccco2)cc1,-27.7,9.3%,1.7%,7.9%,4.8,-6.4,-3.8%
CC(C)Cn1c(=S)[nH]c2cc(C(=O)NCc3ccccc3F)ccc2c1=O,-27.6,·,-8.2%,30.9%,·,-5.7,-5.8%
COc1ccc(CNC(=O)C/C(C)=N/NC(=O)Cc2ccc(OC)cc2)cc1,-3.4,14.5%,3.8%,-39.5%[inhibitor],9.7,-16.9,-15.9%
O=[N+]([O-])c1cc(Cl)ccc1NCCNS(=O)(=O)c1ccccc1,-13.5,-5.8%,-11.8%,4.2%,9.9,-14.6,-8.6%
CCc1cc(=O)oc2cc(C)c3c(C)coc3c12,2.0,8.6%,-6.6%,6.5%,-0.9,-3.1,-14.3%
O=C(COc1ccccc1F)Nc1nc(-c2ccccn2)cs1,·,·,-10.6%,?,·,-8.6,-5.8%
CCCCC(=O)Nc1ccc2c(c1)nc(CN1CCN(C(=O)OCC)CC1)n2C,-3.8,3.2%,3.8%,4.0%,?,-9.8,-0.5%
COC(=O)c1ccc(-n2nnnc2SCC(=O)NCc2cccc(C(=O)O)c2)cc1,-8.8,0.6%,10.2%,-17.7%,2.1,2.0,1.0%
COC(=O)c1ccc(OC)c(CSc2nnc(COc3cccc(C)c3)o2)c1,-1.4,4.1%,-18.3%,3.8%,3.2,3.9,-1.1%
Cc1cnc(NC(=O)c2c(Cl)cnn2C)s1,6.4,-0.3%,-14.6%,?,·,-1.0,0.5%
Cn1c(CNC(=O)Nc2ccccc2)nnc1SCc1ccccc1,4.2,23.9%,9.2%,15.4%,3.0,-27.4,0.5%
Cc1cc2cc(CNC(=O)c3ccco3)ccc2n1C,?,79.4µM*,-1.3%,-8.0%,?,-8.9,-3.7%
O=C(COC(=O)c1cnc(Cl)c(Cl)c1)NC1CCCCCC1,-3.8,·,-3.0%,-75.2%[inhibitor],·,-4.2,0.5%
Fc1cc2nc(-c3ccncc3)[nH]c2cc1F,-42.8,1.9%,1.0%,4.4%,-0.4,?,3.16µM*
CC(=O)Nc1ccc(/C(C)=N/NC(=O)c2ccc(F)cc2)cc1,-25.6,3.9%,11.4%,13.8%[15.4 µM],2.0,-11.4,-13.1%
Cc1ccc(NC(=O)c2cc(C(=O)Nc3ccc(C)cc3)n(C)n2)cc1,·,·,-2.6%,-0.3%,·,-31.9,3.5%
COc1ccc(CN(C)CCCn2ccc(N)nc2=O)cc1OC,·,·,·,-71.2%[inhibitor],·,-1.3,-0.3%
O=C(Nc1cccc(Cl)c1)Nc1nnc(-c2ccncc2)s1,0.9,-2.7%,?,-62.3%[inhibitor],4.5,9.3,-12.2%
Cc1ccc(S(=O)(=O)NCC(=O)OCc2csc(CC(=O)Nc3ccccc3C)n2)cc1C,·,·,?,-12.1%,·,-1.4,1.8%
Cc1[nH][nH]c(=O)c1C(c1c(C)[nH][nH]c1=O)c1cn(Cc2ccc(F)cc2)c2ccccc12,12.2,-15.4%,18.7%,-11.1%,·,-8.9,?

# (list continues)
Molecule,TRPV1 PAM,Sfp PPTase inh,gsp antagonist,gsp agonist,Menin MLL FP FL,D2 PAM,ClpP mod
O=C(NNC(=O)c1cc2ccccc2cc1O)Nc1ccc(Br)cc1,12.5,-6.2%,-13.4%,2.3%[15.4 µM],-0.6,-19.2,28.2µM*
Cc1ccc(C(=O)Oc2coc(CSc3nnc(NC(=O)C4CC4)s3)cc2=O)cc1C,6.8,12.0%,7.0%,6.6%,4.9,2.3,0.7%
O=c1ccnc(SCCC(F)=C(F)F)[nH]1,-12.6,1.4%,8.7%,-8.4%,-0.8,-0.3,·
O=C(O)/C(=C\c1ccc2ccccc2c1)c1cccc2ccccc12,·,·,-18.2%,-6.9%,·,-15.0,-6.8%
COc1ccc(NC(=O)Cn2nnc(-c3ccccc3NS(=O)(=O)c3ccc(OC)cc3)n2)cc1,1.4,-8.1%,19.9%,16.6%[15.4 µM],-21.7,20.7,-2.4%
Cc1ccccc1NC(=O)c1sc2nc3c(c(-c4ccco4)c2c1N)CCCC3,10.7,?,-8.7%,33.6%,-1.0,-2.4,-2.3%
COc1ccc(N(CC(=O)Nc2ccc(C)cc2C)S(=O)(=O)c2ccccc2[N+](=O)[O-])c(OC)c1,9.0,2.2%,-6.7%,-0.5%[15.4 µM],-3.3,-6.2,·
CC1=NN(C(N)=S)C(=O)C1N=Nc1ccc(Cl)cc1Cl (stereo not given),-27.3,10.4%,-19.7%,-18.6%,3.6,-28.6,-2.1%
FC(F)(F)c1cnc(NNC(=S)Nc2ccccc2)c(Cl)c1,·,·,·,-75.5%[inhibitor],·,-53.3,-2.3%
